Screens from PubChem BioAssay.
B2AR ag = activates human beta-2 adrenergic receptor causing internalization; P07550; Am2.2-beta2AR cells, FAP receptor internalization, flow cytometry; reference of the scale not given here; response, % (no concentration beside the values); 340,000 compounds, 0.43% hits;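 active = response above a set limit, near 3 SD of response in nonfluorescent compounds, cut at about 42% in these data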;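 also: stock transfer was 100 nL into about 11 µL; a reference agonist was the positive control; negative values mostly stem from fluorescent compounds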
T cruzi repl = blocks replication of Trypanosoma cruzi; 300,000 compounds, 1.4% hits; inhibition, % (no concentration beside the values); T. cruzi beta-gal in NIH3T3, luminescence, 90 h; AID 1885;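 active = mean inhibition across valid replicates above about 55%, limit read from the data; inconclusive = mean below that limit but half or more replicates reach it; inactive = mean below it, under half of replicates reach it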;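 also: signal also drops with host cell toxicity which is not excluded here; 0% = plate median of DMSO wells and 100% = zero luminescence signal; higher percent means less beta-gal luminescence so fewer parasites; stock transfer was 50 nL into about 50 µL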
LANA-H2A inh = blocks KSHV LANA binding to histone H2A/H2B; Q9QR71; cell-free LANA-H2A/H2B peptide, fluorescence polarization; inhibition, % (test concentration not listed); 320,000 compounds, 0.6% hits; in the data active = inhibition mostly above about 10%, no sharp cut-off; inactive = mostly below about 6.7%;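 also: stock transfer was 7.5 nL into about 10 µL; 0% = median of vehicle wells and 100% = median of positive control wells; one replicate is shown; the record names a cut of 25% in any replicate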
Target sequence (Q9QR71 whole entry, looked up): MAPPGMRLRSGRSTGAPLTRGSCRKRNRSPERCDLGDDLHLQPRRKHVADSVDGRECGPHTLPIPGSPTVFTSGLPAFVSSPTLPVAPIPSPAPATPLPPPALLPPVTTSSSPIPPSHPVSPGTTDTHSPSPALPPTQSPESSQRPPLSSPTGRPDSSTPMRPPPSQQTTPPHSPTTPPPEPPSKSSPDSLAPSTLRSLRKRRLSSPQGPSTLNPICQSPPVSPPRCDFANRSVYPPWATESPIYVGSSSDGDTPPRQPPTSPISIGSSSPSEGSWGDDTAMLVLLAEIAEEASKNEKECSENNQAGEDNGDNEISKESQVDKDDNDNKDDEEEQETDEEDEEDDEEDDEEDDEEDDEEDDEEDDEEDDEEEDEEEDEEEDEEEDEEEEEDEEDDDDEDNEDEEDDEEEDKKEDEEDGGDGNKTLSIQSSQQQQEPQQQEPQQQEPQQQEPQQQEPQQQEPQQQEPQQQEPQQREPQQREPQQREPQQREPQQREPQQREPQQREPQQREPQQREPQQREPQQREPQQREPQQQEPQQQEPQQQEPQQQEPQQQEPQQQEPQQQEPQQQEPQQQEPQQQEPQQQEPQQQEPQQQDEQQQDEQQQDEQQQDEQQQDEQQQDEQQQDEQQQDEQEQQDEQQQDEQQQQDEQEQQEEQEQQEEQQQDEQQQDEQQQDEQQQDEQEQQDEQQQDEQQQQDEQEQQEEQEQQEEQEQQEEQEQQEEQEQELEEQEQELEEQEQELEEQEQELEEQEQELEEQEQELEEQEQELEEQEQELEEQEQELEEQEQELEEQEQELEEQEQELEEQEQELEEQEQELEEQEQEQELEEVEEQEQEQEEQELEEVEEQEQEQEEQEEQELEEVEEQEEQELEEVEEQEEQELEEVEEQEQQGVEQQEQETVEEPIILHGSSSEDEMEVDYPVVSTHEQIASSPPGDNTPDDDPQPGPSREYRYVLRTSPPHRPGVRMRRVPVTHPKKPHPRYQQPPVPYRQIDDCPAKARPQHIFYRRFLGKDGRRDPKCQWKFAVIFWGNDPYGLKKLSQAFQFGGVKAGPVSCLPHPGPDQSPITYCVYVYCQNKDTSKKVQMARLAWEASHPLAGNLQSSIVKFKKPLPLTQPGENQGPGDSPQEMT
Calb FLC = affects C. albicans growth with fluconazole; 300,000 compounds, 0.57% hits; growth inhibition, % (test concentration not listed); C. albicans CaCi-2 (fluconazole-resistant clinical isolate) + fluconazole, Alamar Blue growth, 48 h; AID 1979;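 active = most replicates above 75%; inconclusive = exactly half above 75%; inactive = most below 75%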;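 also: all wells also contain fluconazole at 8 µg/ml as a sub-toxic cotreatment; 0% = median of DMSO wells and 100% = median of geldanamycin control wells; wells of about 8 µL received 7.5 nL stock; the first replicate is given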
A1 inh = inhibitors of the anti-apoptotic protein A1, read as caspase activation; MEF A1-2A-BIM cells, Caspase-Glo 3/7 luminescence, 3 h; percent of clofoctol response, vehicle zero; caspase activation, % (concentration not given with the values); 330,000 compounds, 0.066% hits; AID 2462;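 active = over half of replicate activation scores above 10%, or exactly half above 10 with the replicate mean above 10; inconclusive = replicate mean below 10 yet half the replicates above 10; inactive = over half of replicates below 10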;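 also: wells of about 30 µL received 50 nL stock; many hits fall short of the cut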
Beta cell apopt = blocks beta cell apoptosis | 300,000 compounds, 0.8% hits | INS-1E cytokine-induced death, ATP luminescence, 48 h; percent of positive-control rescue, neutral wells zero | AID 435005 | protection from apoptosis, % (no concentration beside the values);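 active = all replicates at 75% or more, or half of them and the mean; inconclusive = half reach 75% but not the mean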;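 also: 0% = cytokine-treated negative control wells and 100% = positive control rescue; higher means more ATP so stronger rescue from cytokine killing; wells of about 40 µL received 100 nL stock; the first replicate is given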
ALR H2O2 inh = blocks human ALR sulfhydryl oxidase activity; P55789; purified ALR, DTT oxidation, H2O2 HRP-luminol luminescence; inhibition, % (test concentration not listed); 290,000 compounds, 3.8% hits; AID 485317;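 active = mean and each replicate at 75% or more; inconclusive = only one of the two met; inactive = neither met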;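 also: stock transfer was 7.5 nL into about 7.5 µL; 0% = neutral wells and 100% = wells with inactivated enzyme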
Ecoli rRNA inh = selective bacterial rRNA inhibition in E. coli; E. coli WT GFP vs humanized-ribosome RFP mutants, fluorescence, 24 h; stronger effect = lower value; DMSO median 0, no signal -100; GFP signal change (wild-type ribosome), % (concentration not given with the values); 350,000 compounds, 1.6% hits; AID 720706;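 active = significant combined selectivity score with lowered wild-type GFP, culture density cut under 30%, mutant RFP and density less affected; inactive = any of these conditions unmet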; also: one replicate is shown; some compounds called inactive have numbers as strong as hits
Ecoli rRNA inh OD600 = further read-out of Ecoli rRNA inh, marked with its call; OD600 change, %; measured here: OD600 growth;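 optical density of the mix in the first replicate; 0 = DMSO median and -100 = no signal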
Ecoli rRNA inh RFP = second read-out of Ecoli rRNA inh, no call of its own (marks repeat the call); RFP signal change, %; measured here: RFP humanized mutant strains;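 first replicate; 0 = DMSO median and -100 = no signal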
* = called active by the depositor; u = inconclusive; x = no result given. The list is partial; rates above refer to the full screens.

SMILES	B2AR ag	T cruzi repl	LANA-H2A inh	Calb FLC	A1 inh	Beta cell apopt	ALR H2O2 inh	Ecoli rRNA inh	Ecoli rRNA inh OD600	Ecoli rRNA inh RFP
COc1ccccc1/C=C/C(=O)Oc1cccc2cccnc12	5	-16	5.2	0	-0.4	0	19	1	-8	-0.6
CCc1cc(C(=O)N/N=C/c2c(C)[nH]c3ccccc23)cs1	-11	-7	3.1	30	0.2	-3	7	x	x	x
COc1ccc2c(C(=O)c3ccc(C)cc3)n(CCCC(N)=O)[n+]([O-])c2c1	-7	-17	0.1	-5	-0.4	-3	-25	-17	-11	1.6
Nc1n[nH]c(N)c1N=Nc1cccc(C(F)(F)F)c1	-16	8	2.7	-7	1.4	-26	10	-11	-11	0.0
CSCc1c(C(=O)N2CCCc3ccccc32)oc2ccccc12	-1	x	5.6	x	0.9	-3	-9	-27	-50	-6.5
CCCCSCCCNC(=O)C1CCC(CNS(=O)(=O)c2ccccc2)CC1 (stereo not drawn)	2	0	-2.2	-5	0.3	2	2	2	4	-1.8
CCN(CC)C(=O)C1CCCN(C(=O)Nc2ccc3nsnc3c2)C1 (stereo not drawn)	1	10	-1.5	44	0.4	3	-37	x	x	x
CC1CCN(c2ccc(-c3ccc(NC(=O)c4ccco4)cc3)nn2)CC1	-5	7	-2.0	5	-0.1	3	x	-19	-8	-3.2
O=C(O)CCC(=O)Nc1ccc(S(=O)(=O)c2ccc(NC(=O)CCC(=O)O)cc2)cc1	-2	-5	-4.7	-4	-1.2	x	-2	9	10	0.0
Cc1cc(NC(=O)CSc2ccc(Cl)cc2)no1	-3	6	4.3	9	0.6	-20	-4	x	x	x
CCNC(=O)NC1c2ccccc2CSc2ccccc21 (stereo not drawn)	8	-7	4.4	14	0.8	-4	-10	12	3	4.2
Cc1ccc(NC(=O)COC(=O)COc2ccc3ccc(=O)oc3c2)cc1[N+](=O)[O-]	-3	x	-7.7	x	1.3	-8	x	8	21	0.5
CC(C)(O)C#Cc1ccc(CN2CCCC(CO)(Cc3cccc(Cl)c3)C2)cc1 (stereo not drawn)	5	58*	-0.9	-16	-0.2	0	-16	-8	-16	6.3
CCOC(=O)C(=O)c1csc(NC(=O)COc2ccc(N(C)S(=O)(=O)c3ccc(F)cc3)cc2)n1	-5	-2	-1.8	-5	0.2	4	-20	x	x	x
O=C(CCCn1c(=S)[nH]c2ccccc2c1=O)N1CCOCC1	-3	-3	-0.2	-9	1.0	-3	67	x	x	x
CCOC(=O)c1ccccc1NC(=O)C=C(C)C	-3	-25	0.9	-1	-0.2	1	-3	9	1	1.7
CC(=O)Oc1cccc(N2C(=O)c3ccc(C(=O)Nc4c[nH]c(=O)[nH]c4=O)cc3C2=O)c1	-8	4	4.4	-1	0.4	-9	-9	x	x	x
O=C(Cn1nnc(-c2ccc(Cl)cc2)n1)NCc1ccco1	-3	-10	0.3	-13	-0.3	-5	x	11	8	0.8
Cc1ccc(C)c(NC(=O)CCc2nnc3ccc(N4CCCC4)nn23)c1	-9	2	2.8	-14	0.0	-2	-5	5	2	0.9
COc1cccc(OC)c1OCCNCC1COc2ccccc2O1 (stereo not drawn)	-2	1	0.5	29	1.3	-1	-6	-2	-5	-0.1
COc1ccc(NC(=O)CSc2c3c(nc4ccccc24)CCC3)c(OC)c1	-6	9	-3.5	5	-0.4	-2	98*	-20	-23	-9.4
CC(NC(=O)CN1CCOCC1)c1ccc(F)cc1 (stereo not drawn)	3	0	2.2	-5	0.0	-9	-44	6	15	1.4
CCCCCNC(=O)c1cccc(S(=O)(=O)N2CC3(C)CC2CC(C)(C)C3)c1 (stereo not drawn)	10	44	0.5	2	0.1	16	-4	-6	-29	-3.2
CCOC(=O)c1cc(=O)cc(C(=O)OCC)o1	-4	-1	-1.9	3	-0.3	-1	-11	x	x	x
CN(Cc1nc2ccccc2c(=O)[nH]1)C(=O)c1cc2c(s1)CCCCC2	-14	x	3.8	x	0.8	6	1	0	-4	-14
Additional records follow.
SMILES	B2AR ag	T cruzi repl	LANA-H2A inh	Calb FLC	A1 inh	Beta cell apopt	ALR H2O2 inh	Ecoli rRNA inh	Ecoli rRNA inh OD600	Ecoli rRNA inh RFP
O=C(CCc1ccccc1)NCCCNC(=O)CCc1ccccc1	4	x	-0.8	x	0.9	-1	8	13	13	1.6
Cc1cccc(NC(=O)c2cnc3sccn3c2=O)c1	2	-6	5.6	-7	-3.0	-6	-2	3	7	-2.9
CCn1cc(Br)c(C(=O)Nc2nccs2)n1	-6	-16	0.2	4	-0.8	0	-7	6	1	0.7
CCc1nnc(NC(=O)CSc2nnc(Cc3ccccc3)n2-c2ccc(OC)cc2)s1	-1	4	-2.4	-7	0.3	0	-15	x	x	x
CCOC(=O)CC(=O)NC(CC(=O)OC)c1ccc(Br)cc1 (stereo not drawn)	-2	-11	1.2	11	-0.2	1	-2	2	0	-0.2
O=C(c1ccccc1F)N1CCN(c2ccc([N+](=O)[O-])c(N3CCOCC3)c2)CC1	-2	6	-4.4	-14	-0.6	0	-4	-16	-17	-2.7
CC(=O)c1cccc(NC(=O)COC(=O)CC2CC3CCC2C3)c1 (stereo not drawn)	-6	x	1.7	x	-0.1	-2	-10	-29	-35	-8.0
Cc1cc(C)nc(-n2nc(C)cc2NC(=O)CNCc2ccccc2)n1	5	-2	-1.1	-2	0.2	x	-1	x	x	x
COc1ccc(N(C(=O)Cn2nnc3ccccc32)C(C(=O)NC(C)(C)C)c2ccc(OC)c(O)c2)cc1 (stereo not drawn)	1	12	-0.6	78*	-0.3	2	12	12	-3	0.2
COc1ccc(/C=C2\N=C(C)N(c3ccc4ccccc4c3)C2=O)cc1OC	8	14	-0.1	4	-0.1	6	3	22	11	23
Cc1cc(OCCCCN2C(=O)NC(C)(C)C2=O)ccc1[N+](=O)[O-]	3	7	-0.8	-3	-1.7	5	4	-19	-18	0.8
OCc1nc2ccccc2n1Cc1c(F)cccc1Cl	1	-8	-2.5	-9	0.1	-2	-1	1	6	-9.6
CCOc1ccc(NC(=O)c2cccc(NC3=NC4CS(=O)(=O)CC4S3)c2)cc1 (stereo not drawn)	-2	-5	-6.6	-6	x	-1	-16	5	9	5.5
CCOc1ccc(CCNC(=O)COC(=O)Cc2ccc(F)cc2)cc1OCC	-11	-6	-20	-6	-0.2	-9	-8	-2	-1	-2.2
Cc1cc(/C=C(\C#N)C(=O)Nc2ccc(Cl)cc2)c(C)n1-c1ccc(N2CCOCC2)c([N+](=O)[O-])c1	3	41	x	11	0.2	13	x	3	10	2.2
CCOCCCNC(=O)CCS(=O)(=O)Cc1ccc(C)cc1	0	-10	-0.6	-2	-0.4	-5	-2	13	6	-1.9
O=C(CN1C(=O)c2cccnc2Oc2ccc(Cl)cc21)Nc1ccc(F)cc1	3	2	-3.4	0	0.0	-7	6	-2	-10	0.0
Oc1ccccc1OCCOc1ccccc1OCCOc1ccccc1O	-2	1	-3.2	-4	-0.5	-8	x	-2	-10	-7.6
COc1ccc2nc3oc(C(=O)NC4CCN(Cc5ccccc5)CC4)cc3cc2c1	17	x	4.2	x	-0.1	x	1	x	x	x
CCOC(=O)CN(C(=O)COc1nc(-c2ccccc2)cc(C)c1C#N)c1cccc(OC)c1	-8	28	-2.9	-4	0.0	3	-14	5	6	1.2
Cc1ccccc1CN1C[C@@H]2C[C@@H](c3cnc(N4CCOCC4)s3)N3CCC[C@@]23C1=O	0	8	-1.2	9	0.2	-2	-19	6	4	0.6
CCCC(=O)c1ccc(N2CCN(S(=O)(=O)c3ccc(C)cc3)CC2)c(F)c1	2	16	3.2	u	0.5	10	6	11	13	5.2
CCOc1ccccc1NC(=O)Cn1nc(-c2ccco2)ccc1=O	1	5	4.2	-4	-0.1	-1	3	1	0	1.9
O=C(O)c1ccc(Nc2ncnc3scc(-c4ccccc4)c23)cc1	11	-6	-2.4	-2	0.6	0	6	8	2	-1.3
Cc1cc(C)cc(OCC(=O)OCC(=O)c2cc(C)n(C3CC3)c2C)c1	-1	-8	2.1	-2	0.4	x	1	3	5	0.5
The listing continues.
SMILES	B2AR ag	T cruzi repl	LANA-H2A inh	Calb FLC	A1 inh	Beta cell apopt	ALR H2O2 inh	Ecoli rRNA inh	Ecoli rRNA inh OD600	Ecoli rRNA inh RFP
Cc1ccc(-n2cc(S(=O)(=O)c3ccc(C)cc3)[nH]c2=O)cc1	-3	-14	2.2	-21	-0.6	-5	1	-10	-15	1.3
CCN(CC)C(=O)CSc1nc(Cc2ccccc2)nc2ccccc12	9	-4	5.4	9	-0.1	4	6	3	4	-2.2
Cc1cc(C(=O)COC(=O)c2ccncc2)c(C)n1Cc1ccco1	11	12	-0.7	0	0.4	-2	-2	8	6	1.0
CC(=O)/C(=N\Nc1ccc(C)cc1)N1CCOCC1	5	11	2.2	-4	0.2	-3	99*	x	x	x
COc1ccc2nc3ccccc3nc2c1NC(=O)c1ccccc1Cl	1	3	-1.8	45	1.5	x	-18	19	12	2.2
CCN(CC)CCn1c(SCC(=O)NCCC2=CCCCC2)nc2c(sc3ccccc32)c1=O	2	60*	0.1	-19	-0.1	-1	-12	1	-3	1.3
Cc1c(C)c2c(OCC(=O)O)cc3c(c2oc1=O)CCC(C)(C)O3	-6	-3	-1.4	15	-1.5	-1	-3	4	-1	0.7
CCC1(C)N([O-])C(C)=C(c2ccccc2)[N+]1=O (stereo not drawn)	6	-3	-1.4	1	0.2	-4	-8	x	x	x
CC1CN(C(=S)Nc2ccc(S(N)(=O)=O)cc2)CC(C)O1 (stereo not drawn)	-1	-29	-5.2	-5	-0.5	0	-10	6	9	-0.5
CCC(C)(C)C1CCc2[nH]nc(C(=O)NN)c2C1 (stereo not drawn)	11	16	-3.6	1	0.8	1	-1	x	x	x
O=C(c1ccc([N+](=O)[O-])cc1)N1CCN(C(=O)c2ccco2)CC1	-6	-17	-1.8	-2	-1.3	-2	-3	7	11	-0.7
Cc1ccc(SCC(=O)NCCSCc2ccccc2)cc1	-13	13	0.1	2	-0.8	-7	-3	-44	-69	-14
CC1(C)Cc2ccccc2C(N)=C1C#N	1	-10	2.4	0	0.6	1	0	x	x	x
CCCCCOc1ccc(Br)cc1/C(C)=N/NC1=NCCN1	44*	55*	-2.7	15	0.1	45	-3	x	x	x
O=C(Nc1ccc(N2CCOCC2)cc1)c1ccc(COc2ccccc2)cc1	2	9	-5.6	-2	-0.4	5	-6	4	12	-1.3
Cc1cc(C)c2c(-n3cccc3)nn(CC#N)c2n1	1	-6	-5.6	7	1.3	-3	-1	x	x	x
COc1ccc(COc2ccccc2C(N)=O)cc1F	-1	-7	3.6	-18	-3.6	-8	-4	-1	3	-0.8
CN(C(=O)CN1C(=O)/C(=C/c2ccc(F)cc2)SC1=S)C1CCS(=O)(=O)C1 (stereo not drawn)	-5	5	3.8	-4	-0.4	-7	22	1	11	-1.4
CN(C1(C)CCS(=O)(=O)C1)S(=O)(=O)c1ccc(F)cc1 (stereo not drawn)	2	-15	0.8	-1	-0.7	x	2	5	16	-1.4
